Assay outcomes: PubChem BioAssay, several laboratories
BJeLR lethal: MLPCN primary cell-based screen for lethality selective to Ras in HRASV12 cells; inhibition, % (concentration not given with the values); 300,000 compounds, 0.17% hits; BJeLR (HRASV12) viability, CellTiter-Glo ATP luminescence, 48 h; reference of the scale not given here;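 active means replicate mean above 50%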;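 further: 50 nL library stock added to about 25 µL; numbers are from one replicate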
PrP UTR inh: inhibition of PrP 5' UTR reporter expression. cell-based PrP 5' UTR mRNA reporter, plate reader. inhibition, % (concentration not given with the values). 340,000 compounds, 0.35% hits. AID 488862, 2010;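 active means every replicate at 50% or more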;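 further: 0 = median of the neutral control wells; tested in H4 reporter cells; numbers are from one replicate; inactives centre near -14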
Autofluor counter: flagged as autofluorescent in microsphere protease counterscreen. fluorescence intensity (no concentration beside the values). 360,000 compounds, 3.1% hits. compound autofluorescence counterscreen, microsphere flow cytometry; stronger effect = higher value;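 active means at least 3 SD above the mean of all compounds, about 16000 in these data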;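 further: 100 nL of 1 mM stock went into each well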
Mtb hypoxia inh: PubChem AID 1159583 | 300,000 compounds, 0.1% hits | M. tuberculosis hypoxia-regulated fluorescent reporter, fluorescence | fluorescence inhibition, % (concentration not given with the values);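 active means 35 to 45% if threefold the growth effect, above 45% if 1.5-fold the growth effect; inactive means the rest, general growth blockers included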;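 further: wells of about 50 µL received 100 nL stock; 0% = vehicle wells and 100% = reference inhibitor wells; whole bacteria with a GFP reporter of the hypoxia response; strong numbers were not always called active; many hits fall short of the cut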
Sa ugtP lethal: growth inhibition of ugtP-null S. aureus, primary screen, RN4220 ugtP deletion, OD600; AID 1259309, 2017; 330,000 compounds, 0.54% hits; growth inhibition, % (concentration not given with the values); 16 h; some inactives read as strong as hits;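 active means z-score under -3 and OD600 up to 0.15 on both plates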;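 further: plate controls were untreated wells for no effect and antibiotic for full effect; wells of about 80 µL received 100 nL stock; the first replicate is given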
Sa RN4220 lethal: growth inhibition of S. aureus RN4220, primary screen, OD600; inhibition, % (concentration not given with the values); 330,000 compounds, 0.33% hits; 16 h;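 active means z-score of -3 or lower and OD600 up to 0.18 on both plates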;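 further: plate controls were untreated cells for no effect and reference antibiotic for full effect; stock transfer was 100 nL into about 80 µL; one replicate is shown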
Mtb hypoxia inh growth: also measured in Mtb hypoxia inh; calls as there; growth inhibition, %; measured here: M. tuberculosis growth (absorbance);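 0% = vehicle and 100% = reference antibiotic; read after six days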
The depositor's hits bear a star; · = no result given.

SMILES	BJeLR lethal	PrP UTR inh	Autofluor counter	Mtb hypoxia inh	Mtb hypoxia inh growth	Sa ugtP lethal	Sa RN4220 lethal
CC(C)(C(=O)NC(CO)c1ccccc1)C(=O)NC(CO)c1ccccc1 (stereo not drawn)	·	·	·	1.5	5.4	3.4	3.3
COc1cc2c(cc1OC)CN(C(=O)NS(=O)(=O)c1ccc(C)cc1)CC2	6.4	-12.9	6532	7.3	-0.6	1.9	1.6
CC(=O)Nc1ccc(CN2CCN(Cc3ccc(F)c(F)c3)C(CCO)C2)cc1 (stereo not drawn)	5.6	-12.3	4663	-2.6	23.1	-0.9	0.9
Nc1nc(-c2cc(Cl)cc(Cl)c2OC(F)F)cs1	4.7	-7.3	4556	16.9	-1.5	3.0	7.9
N#Cc1ccccc1OCC(=O)N1CCN(C(=O)c2ccco2)CC1	-5.1	-17.9	4042	15.8	4.3	-1.6	5.4
COc1ccc(CC(=O)Nc2ccccc2C(=O)N2CCCC2)cc1	-0.1	-3.3	6039	4.6	-8.5	8.7	0.9
COc1cccc(OC)c1OC(=O)/C=C/c1ccc(C)o1	-9.8	-18.3	3979	-0.6	-5.8	-5.6	5.1
Cc1nc2ccccc2n1C1CCN(C(=O)Nc2ccccc2)CC1	11.3	-19.6	3203	11.8	2.5	5.9	5.5
Cn1nc(CC(=O)Nc2cccnc2N2CCOCC2)c2ccccc2c1=O	-8.4	·	·	4.2	10.5	5.0	5.5
CCN(CC)S(=O)(=O)c1ccc(N2CCCCC2)c(NC(=O)C2=COCCO2)c1	7.5	-83.7	6323	3.5	-5.9	2.9	21.1
N/C(=N\N=C/c1ccc(-c2ccc(O)c(C(=O)O)c2)o1)N[N+](=O)[O-]	-0.7	-21.4	11047	·	·	·	·
COC(=O)/C(=C\C(=O)c1ccccc1)Nc1ccc(OC)cc1	1.1	-29.9	5703	·	·	·	·
CCOC(=O)CC1COCCN1Cc1cn(C)nc1-c1ccccc1F (stereo not drawn)	·	-31.2	3301	14.2	6.2	7.5	5.2
NC(=O)C1CCN(c2nnnn2-c2ccccc2)CC1	1.8	-23.7	2580	·	·	9.6	-1.3
COc1c(C)cc(C(=O)C2CCCN(Cc3cccc(O)c3)C2)cc1C (stereo not drawn)	0.5	-22.3	4541	-4.1	2.5	16.1	3.0
N/C(=N\NS(=O)(=O)c1ccccc1)c1ccccn1	1.6	-21.6	6086	-6.7	-14.4	-0.3	-1.2
O=c1[nH]c2ccccc2[n+]([O-])c1-c1ccccc1	-9.2	-14.8	4443	-1.5	7.2	0.2	0.8
O=C(/C=C/c1ccc(OCCCF)cc1)NCc1ccc(Cl)cc1	1.0	-33.5	2344	·	·	-8.6	0.7
CC(O)C1CCC2C3CC[C@H]4CC(O)CCC4(C)C3CC3(OCCO3)C12C (stereo partly drawn)	-8.0	-17.5	5435	2.5	6.0	25.9	8.4
COc1ccc(N2CCN(S(=O)(=O)CCNC(=O)CCCc3ccccc3)CC2)cc1	3.4	-13.5	5543	1.4	4.9	7.9	1.9
O=C(NC(=S)NC1CCCc2ccccc21)c1ccco1 (stereo not drawn)	-0.9	-2.9	4480	-1.8	3.1	-6.8	4.4
Cc1cnccc1CN(C)Cc1cn(C)nc1-c1cccc(Cl)c1	0.1	5.9	4834	5.9	3.7	3.6	5.4
CC(C)CNC(=O)CCc1c[nH]c2ccccc12	·	-16.4	2453	·	·	0.4	-8.2
CON=Cc1ccc(Sc2ccccc2)c([N+](=O)[O-])c1	·	·	·	-1.1	5.2	23.2	10.2
O=C(Oc1cccc2c(O)cccc12)c1ccccc1	-0.3	-16.9	2352	·	·	7.9	6.0
COc1ccc(Cl)cc1NC(=O)CN(C)CC(=O)Nc1ccccc1-c1ccccc1	-1.4	-4.6	4548	3.2	5.7	5.2	-6.5
CC1CCCCC1NC(=O)C1CCN(S(=O)(=O)c2cccc3nsnc23)CC1 (stereo not drawn)	-14.7	-24.0	10326	3.4	-0.1	4.5	2.1
CN(C)c1cccc(C(=O)NCc2ccccc2Cl)c1	·	-6.9	2027	3.7	-9.3	8.7	14.0
O=C(O)CSc1nnc2n(-c3ccccc3)c(=O)c3ccccc3n12	-6.2	-14.3	2830	5.8	0.6	18.7	4.3
O=C(c1ccncc1)N1N=C2CCCCCC2C1(O)C(F)(F)F (stereo not drawn)	0.4	-23.6	2615	8.4	-2.8	4.5	6.4
CCOc1ccccc1C(=O)OC(C)C(=O)Nc1ccc(S(=O)(=O)N2CCCC2)cc1 (stereo not drawn)	·	-10.4	4033	1.3	0.2	3.3	1.7
COc1ccc(NC(=O)CN(C)C(=O)c2cc(-c3ccco3)nc3ccccc23)cc1	4.0	-23.1	5763	2.6	1.0	0.1	2.2
CCS(=O)(=O)N1Cc2ccccc2CC1C(=O)Nc1ccc(C)cc1 (stereo not drawn)	-1.3	-30.7	22120*	2.5	13.0	1.5	1.6
Cc1ccc(C)n1NC(=O)c1ccc([N+](=O)[O-])cc1	9.1	-0.5	3607	-5.1	-1.0	-8.9	-0.8
Cc1nnc(SCCCOc2ccccc2)nc1C	-4.5	-7.6	3915	4.0	5.4	6.5	5.4
CCSc1nc2ccccc2c(=O)n1OCC(=O)OC	5.1	-12.9	9188	7.4	10.4	1.0	2.1
CC1(C)C2CC=C(/C=N/NC(=S)NCCc3ccccc3)C1C2 (stereo not drawn)	4.3	-14.0	4821	·	·	·	·
CN1CCN(S(=O)(=O)c2cccc(C(=O)Oc3cccc(Br)c3)c2)CC1	-5.3	0.8	5831	0.3	3.4	-0.3	1.0
O=C(N/N=C/C=C/c1ccccc1)c1cccnc1	1.3	-25.4	3894	·	·	·	·
COc1cc(C2C(C#N)=C(N)Oc3cc(C)oc(=O)c32)cc2c1OCO2 (stereo not drawn)	-2.8	-17.4	3694	0.9	4.8	-4.4	7.2
COC(=O)c1ccc(S(=O)(=O)N2CCCCCC2)cc1	-5.1	4.6	2867	13.9	7.3	9.8	5.1
COCCN(CCOC)C(=O)CC(=O)N(CCOC)CCOC	-4.9	1.6	19259*	-1.1	-1.7	4.7	3.5
O=C(NCCc1ccccc1)C(=O)c1c(-c2ccccc2)cc2ccccn12	-5.8	-12.2	2128	-7.5	-2.9	1.4	5.7
CCn1c(CC(=O)Nc2ccccc2F)nnc1SCC(=O)NC1CCCC1	-6.2	-19.4	3738	3.5	0.6	9.6	3.2
CC(c1ccccc1)C1C(C#N)=C(N)OC2=C1C(=O)CCC2 (stereo not drawn)	2.3	-1.9	4638	·	·	4.9	2.3
Cc1cccc(N2CCN(CC(O)COc3ccc4ccccc4c3)CC2)c1 (stereo not drawn)	·	-19.8	2945	8.5	-1.3	8.1	1.8
Cc1ccc(C(=O)OCC(=O)NCCN2C(=O)CSC2=O)cc1[N+](=O)[O-]	·	-23.7	2996	-3.6	0.5	-0.6	-1.7
CN(C)C(=O)c1cc(C(=O)Cc2ccccc2)c[nH]1	-3.7	-22.7	2908	5.4	-4.3	4.7	2.6
Cc1cccc(S(=O)(=O)c2c(N)n(/N=C/c3cccnc3)c3nc4ccccc4nc23)c1	0.6	1.7	5409	·	·	·	·
CCc1cccc(CC)c1NC(=O)CN1CCc2cc(OC)c(OC)cc2C1	3.9	-15.0	3916	-1.4	-4.8	-2.3	5.1

Other records:
SMILES	BJeLR lethal	PrP UTR inh	Autofluor counter	Mtb hypoxia inh	Mtb hypoxia inh growth	Sa ugtP lethal	Sa RN4220 lethal
CCOc1c(CNc2nnnn2C)cccc1OC	-18.2	-24.6	3673	1.5	1.1	6.3	10.7
CCc1csc(CCNC(=O)C2CCC(=O)N(CCc3cccc(F)c3)C2)n1 (stereo not drawn)	-6.2	-0.3	5416	4.5	13.3	-2.3	0.1
COc1cccc(/C=C2\Oc3cc(OCC(=O)N4CCC[C@H]4C(=O)O)ccc3C2=O)c1	5.1	-12.7	6151	·	·	-12.3	4.2
O=C(COC(=O)c1ccccc1NCc1ccco1)Nc1ccc2c(c1)OCO2	-0.2	-22.7	4847	·	·	-7.1	7.8
Clc1cccc(-c2nn3c(Cn4cnc5ccccc54)nnc3s2)c1	-10.8	-3.7	10261	2.3	9.0	4.0	0.2
CCc1cc(=O)oc2cc(OC(C)C(=O)NCc3ccccn3)ccc12 (stereo not drawn)	-2.2	-8.0	4646	9.6	9.4	2.0	1.1
Cc1ccc(/C=N/NC(=O)Cc2cccn2C)cc1	6.9	-41.1	4105	·	·	·	·
Cc1cccc(/C=N/NC(=O)CNc2cccc3ccccc23)n1	2.9	-16.7	2112	·	·	·	·
Cc1cccc(NC(=S)NC(NC(=O)c2ccco2)C(Cl)(Cl)Cl)c1 (stereo not drawn)	7.7	-15.2	4497	·	·	-9.2	-7.2
CC(C)C[C@@H](C(=O)O)N(Cc1cccc(CN([C@@H](CC(C)C)C(=O)O)S(C)(=O)=O)c1)S(C)(=O)=O	1.7	-6.3	3870	·	·	·	·

By substructure: the entries above with fluorine
SMILES	BJeLR lethal	PrP UTR inh	Autofluor counter	Mtb hypoxia inh	Mtb hypoxia inh growth	Sa ugtP lethal	Sa RN4220 lethal
CC(=O)Nc1ccc(CN2CCN(Cc3ccc(F)c(F)c3)C(CCO)C2)cc1 (stereo not drawn)	5.6	-12.3	4663	-2.6	23.1	-0.9	0.9
Nc1nc(-c2cc(Cl)cc(Cl)c2OC(F)F)cs1	4.7	-7.3	4556	16.9	-1.5	3.0	7.9
CCOC(=O)CC1COCCN1Cc1cn(C)nc1-c1ccccc1F (stereo not drawn)	·	-31.2	3301	14.2	6.2	7.5	5.2
O=C(/C=C/c1ccc(OCCCF)cc1)NCc1ccc(Cl)cc1	1.0	-33.5	2344	·	·	-8.6	0.7
O=C(c1ccncc1)N1N=C2CCCCCC2C1(O)C(F)(F)F (stereo not drawn)	0.4	-23.6	2615	8.4	-2.8	4.5	6.4
CCn1c(CC(=O)Nc2ccccc2F)nnc1SCC(=O)NC1CCCC1	-6.2	-19.4	3738	3.5	0.6	9.6	3.2
CCc1csc(CCNC(=O)C2CCC(=O)N(CCc3cccc(F)c3)C2)n1 (stereo not drawn)	-6.2	-0.3	5416	4.5	13.3	-2.3	0.1

Next structures follow:
SMILES	BJeLR lethal	PrP UTR inh	Autofluor counter	Mtb hypoxia inh	Mtb hypoxia inh growth	Sa ugtP lethal	Sa RN4220 lethal
COc1ccc(C2c3[nH]c4ccccc4c3C[C@H]3C(=O)N(C4CCN(Cc5ccccc5)CC4)CC(=O)N23)cc1OC (stereo partly drawn)	-5.3	-15.8	4124	-6.5	9.0	-14.2	-1.2
COc1ccccc1NS(=O)(=O)c1cccc(NC(=O)C2CC(=O)N(Cc3ccccc3)C2)c1 (stereo not drawn)	-3.5	-14.7	3168	-5.8	3.3	10.4	2.2
COCCNC(=O)C1c2cc(OC)c(OC)cc2C(=O)N(C)C1c1cccnc1 (stereo not drawn)	-0.3	-8.1	3675	5.9	3.4	1.2	2.3
O=C(NNC1=NS(=O)(=O)c2ccccc21)c1ccccc1Cl	2.9	8.1	4371	13.0	-2.0	2.9	4.7
CC(C)CCNC(=O)c1ccc2c(Cl)c3c(nc2c1)CCC3	4.9	-57.2	3908	9.9	7.0	1.7	8.7
O=C(NCc1ccncc1)c1ccccc1Nc1ccc(SC(F)F)cc1	-4.1	4.4	3600	5.7	7.1	-3.6	0.8
COCCCN1C(=O)C(=O)/C(=C(/O)c2ccc(OC(C)C)c(C)c2)C1c1ccncc1 (stereo not drawn)	1.9	-8.2	2581	·	·	·	·
CC(C)(C)NS(=O)(=O)NC(=O)C1=C(N2CCCC2)COC1=O	·	-7.4	4129	7.6	4.7	3.2	-10.5

No new results follow: entries from further up.
SMILES	BJeLR lethal	PrP UTR inh	Autofluor counter	Mtb hypoxia inh	Mtb hypoxia inh growth	Sa ugtP lethal	Sa RN4220 lethal
COCCNC(=O)C1c2cc(OC)c(OC)cc2C(=O)N(C)C1c1cccnc1 (stereo not drawn)	-0.3	-8.1	3675	5.9	3.4	1.2	2.3
O=C(NNC1=NS(=O)(=O)c2ccccc21)c1ccccc1Cl	2.9	8.1	4371	13.0	-2.0	2.9	4.7
CC(C)CCNC(=O)c1ccc2c(Cl)c3c(nc2c1)CCC3	4.9	-57.2	3908	9.9	7.0	1.7	8.7
O=C(NCc1ccncc1)c1ccccc1Nc1ccc(SC(F)F)cc1	-4.1	4.4	3600	5.7	7.1	-3.6	0.8
